Hsc70 = small molecules displacing fluorescent ligand from Hsc70 – biochemical, fluorescence polarization, primary screen (AID 568); Hsc70 fluorescence polarization, probe displacement; higher % means a stronger effect; strong numbers were not always called active; displacement, % at 20 µM; hits with a dose series show IC50 in µM; 83,000 tested, under 10 active;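 active = displacement above 50% without optical interference and an IC50 on retest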;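 also: ATPase domain with a fluorescein-tagged ATP probe; 0% = vehicle and 100% = excess ADP; read after one hour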
MT1-MMP promoter = MT1-MMP gene expression reporter suppression – cell-based, luciferase reporter, luminescence (AID 618); actives 0.62% (n = 87,000); MT1-MMP promoter luciferase reporter cells, luminescence; calls from a first round at 10 µM; hits with a dose series show EC50 in µM;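 active = over half of the reporter light lost at 10 µM or EC50 under 50 µM; inactive = the rest and hits that failed the dose series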;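 also: actives suppress MT1-MMP promoter-driven transcription so potencies describe inhibitors; HT1080 fibrosarcoma cells; overnight exposure; toxic or luciferase-blocking compounds were not removed from the actives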
WNV NS2B-NS3 inh = WNV NS2B-NS3 proteinase inhibition | WNV NS2B-NS3 protease, fluorogenic substrate Ex360/Em465; active compounds read low | z-score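 (tested at a level between 10 and 100 µM)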 | actives 0.18% (n = 65,000) | AID 577;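 active = z-score at -3 or under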;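 also: score is relative to mean and spread of the compound wells of a plate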
Target sequence (P06935 1371-1501 limits assumed): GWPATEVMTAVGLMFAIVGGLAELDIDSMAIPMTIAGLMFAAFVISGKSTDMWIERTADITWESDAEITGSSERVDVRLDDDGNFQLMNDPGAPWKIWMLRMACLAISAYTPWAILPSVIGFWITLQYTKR
Target sequence (P06935 1502-1679 limits assumed): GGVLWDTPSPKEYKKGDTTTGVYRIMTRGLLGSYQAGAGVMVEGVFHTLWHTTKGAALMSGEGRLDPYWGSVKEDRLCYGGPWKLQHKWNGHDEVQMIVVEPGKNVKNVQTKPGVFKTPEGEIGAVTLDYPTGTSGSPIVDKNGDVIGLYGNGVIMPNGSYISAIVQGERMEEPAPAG
Starred values were filed as active, the others as inactive; i = inactive; . = not tested or not shown. Only part of the results is shown (hit frequency here may not be typical).

SMILES | Hsc70 | MT1-MMP promoter | WNV NS2B-NS3 inh
CC1CN(C(=O)CCn2c(=O)oc3ccccc32)CC(C)O1 (stereo unspecified) | -4.7% | i | -0.31
CCN(CCCNC(=O)C1CCN(S(=O)(=O)N2CCOCC2)CC1)c1cccc(C)c1 | -4.0% | i | -0.06
FC(F)(F)c1cc(-c2ccco2)nc(NCc2cccs2)n1 | -1.7% | i | 0.02
Cn1c(C(=O)NCc2cccnc2)cc2sccc21 | -3.0% | i | 1.1
O=C(NC1(C(F)(F)F)N=C2SCCN2C1=O)c1ccco1 (stereo unspecified) | -3.8% | i | -0.17
Cc1cccc(NC(=O)CCN2C(=O)c3ccccc3C2=O)n1 | -1.6% | i | -0.48
CC(c1ccco1)N(C(=O)Nc1ccccc1)C1CCCCC1 (stereo unspecified) | -0.2% | i | .
Cc1cc(NC(=O)CN2CCN(Cc3ccccc3)CC2)nc2c1c(=O)oc1ccccc12 | -2.4% | i | 0.25
COCCCNC(=O)c1ccccc1Oc1ccccc1 | 3.6% | i | -0.82
CCOC(=O)c1cc(C(=O)OCC)cc(-n2cc(O)c(C(=O)OCC)n2)c1 | 0.7% | i | .
Cc1nc2sc(C(c3ccco3)N3CCC(Cc4ccccc4)CC3)c(O)n2n1 (stereo unspecified) | 2.6% | i | 3
CCOc1ccccc1-n1c(SCC(=O)Nc2nccs2)nnc1-c1ccoc1C | -12% | i | 0.74
Cc1cc(C(=O)COC(=O)C2=NNC(=O)CC2)c(C)n1-c1ccccc1 | -2.2% | i | .
C/C=C(\C)CN1CCN(c2ccccc2F)CC1 | 8.2% | i | 0.52
CC(CC#CCN1CCOCC1)OCCC#N (stereo unspecified) | 3.4% | i | -0.81
CC1CCc2c(C(=O)NCCN3CCOCC3)csc2C1 (stereo unspecified) | -1.0% | i | -0.54
O=C(CSCCO)Nc1nccs1 | -6.8% | i | -0.62
Cc1cc(Oc2ccccc2)nc(-c2ccccc2O)n1 | 1.6% | i | -0.31
O=S(=O)(c1ccc(Br)s1)N1CCN(c2ccccn2)CC1 | -5.4% | i | -0.2
CCN(CC)C(=O)N1c2ccccc2CC(N(CC)CC)c2ccccc21 (stereo unspecified) | 0.6% | i | -0.04
O=C(COc1cccc(-n2cnnn2)c1)NCCC1=CCCCC1 | 9.5% | i | 0.79
O=S(=O)(NC1CCCC1)c1ccc(Br)s1 | 0.8% | i | -1.4
COc1ccc(/C=C/C(=O)c2ccc[nH]2)cc1OC | -0.8% | i | .
COc1cc(C)c(S(=O)(=O)NCc2ccc3c(c2)OCO3)cc1C | 5.2% | i | -0.41
CCn1cc(C(=O)OCC(=O)Nc2ccc(S(=O)(=O)N3CCCC3)cc2)c(=O)c2ccc(C)nc21 | -9.5% | i | -0.75

The list goes on.
SMILES | Hsc70 | MT1-MMP promoter | WNV NS2B-NS3 inh
C=CCn1c(SCC(=O)Nc2nnc(CC)s2)nnc1-c1cccnc1 | -6.0% | i | .
Cc1[nH]c2ccccc2c1C(=O)COC(=O)C1CC(=O)N(Cc2ccccc2)C1 (stereo unspecified) | 2.2% | i | .
Cc1[nH]c(=O)c(C#N)c(C)c1Br | 3.9% | i | 0.16
N#CCCN1CCN(Cn2c3ccccc3c3ccccc32)CC1 | -2.1% | i | -0.13
COc1cc(OC)c(C2N(c3ccc(Cl)c(Cl)c3)C(=O)C3CCCN32)cc1OC (stereo unspecified) | 5.8% | i | 1.9
NC(=O)CSc1nnc(Cc2ccc3c(c2)OCO3)n1C1CCCCC1 | -4.2% | i | 2.2
COCCNC(=O)NC(=O)COC(=O)Cc1ccc2c(c1)OCCO2 | 5.6% | i | -0.77
N#Cc1cc(-c2ccccc2)nnc1Sc1ccccc1 | -5.3% | i | .
COc1ccc(Cl)cc1NC(=O)CN(C(=O)c1ccco1)C1CCCCC1 | 3.1% | i | 0.6
COC(=O)CN1C(=O)C2(C(C#N)=C(N)Oc3cc(C)oc(=O)c32)c2ccccc21 (stereo unspecified) | 3.7% | i | 0.11
Cc1nc2c(c(N3CCOCC3)n1)OCC(=O)N2 | 1.2% | i | 0.12
O=C(Nc1ccc2c(c1)OCO2)c1ccccc1SCC(=O)N1CCCC1 | 2.8% | i | -0.57
O=C(Nc1ccc(N2CCN(C(=O)c3ccco3)CC2)c(Cl)c1)c1cc2ccccc2o1 | -3.8% | i | -0.14
CCS(=O)(=O)N1Cc2ccccc2CC1C(=O)N1CCN(c2cccc(C)c2C)CC1 (stereo unspecified) | 5.8% | i | -3.1*
CCN1/C(=C/C(=O)c2ccco2)Sc2ccccc21 | 2.4% | i | 0.06
CCCCNC(=O)CSc1nc2cc3c(cc2c(=O)n1CCCN(CC)CC)OCO3 | 0.1% | i | -0.02
O=C1c2ccccc2C(=O)N1CCCC(=O)N1CCCc2ccccc21 | 1.0% | i | -1.1
COc1cccc(NC(=O)c2nnn(Cc3ccc(Br)cc3F)c2N)c1 | 6.9% | i | 0.24
CC(C)CNc1oc(-c2ccco2)nc1C#N | -0.8% | i | .
COc1ccccc1C1C(C(C)=O)=C(C)N=c2s/c(=C\c3cc(OC)c(OC)c(OC)c3)c(=O)n21 (stereo unspecified) | -12% | i | .
CCCN(CCC)CCNC(=O)c1cc2c(C)nc3ccccc3c2o1 | -9.5% | i | 0.99
Cn1c(CSc2nnc(SCc3ccccc3)s2)nc2ccccc21 | 4.1% | i | -1.1
O=C(C1CC1(c1ccccc1)c1ccccc1)N1CCOCC1 (stereo unspecified) | 8.3% | i | -0.14
CCC(C)(C(=O)NC1CCCCC1)N(Cc1ccco1)C(=O)c1cnccn1 (stereo unspecified) | 0.5% | i | -0.8
CC1CCCN(S(=O)(=O)c2ccc(NC(=O)CCN3C(=O)c4ccccc4C3=O)cc2)C1 (stereo unspecified) | -6.7% | i | .

(list continues)
SMILES | Hsc70 | MT1-MMP promoter | WNV NS2B-NS3 inh
CCOc1cc(-n2ncc(C#N)c2N)nc(SC)n1 | -5.6% | i | .
CCC(c1nnnn1CCc1ccccc1)N(Cc1ccco1)Cc1cc2cccc(C)c2[nH]c1=O (stereo unspecified) | -7.2% | i | -0.12
C=CCOc1cccc(C2/C(=C(\O)c3ccc(F)cc3)C(=O)C(=O)N2CCN(C)C)c1 (stereo unspecified) | -2.3% | i | -0.07
Cc1ccc(CNc2ncc(-c3ccc4c(c3)OCO4)n2C)cc1 | -2.0% | i | 2.2
COc1cccc(-c2cc(C(=O)Nc3ccccc3SC)no2)c1 | 4.6% | i | -0.73
CCOc1ccc(NC(=O)CN(C)CC(=O)Nc2ccccc2C#N)cc1OCC | 4.8% | i | -0.8
COc1ccc(CCNC(=O)C2CCN(S(=O)(=O)N3CC(C)CC(C)C3)CC2)cc1OC (stereo unspecified) | 6.0% | i | 0.49
O=[n+]1c2c(n([O-])c3cc(F)c(F)cc31)CCCC2 | 8.3% | i | -0.75
Cc1nc(-n2cc(F)c(=O)[nH]c2=O)c2nc(C)oc2n1 | -5.8% | i | -1.2
CC1(C)CC(=O)C(C=NC2CCCCC2)=C(O)C1 | -2.0% | i | -0.05
CCN(CC)c1nc2c(s1)C(=O)NCCC2 | 0.5% | i | .
Cc1ccc(/C=N/N2C(=S)SC(C)(C)C2N(O)C(=O)Nc2ccc([N+](=O)[O-])cc2)cc1 (stereo unspecified) | -1.3% | i | .
COC(=O)c1ccc(Cn2cnc3ccccc3c2=O)cc1 | 7.0% | i | -0.46
CC(Cc1ccc(O)c(O)c1)C(C)Cc1ccc(O)c(O)c1 (stereo unspecified) | -1.9% | i | -0.8
Cc1ccc(N(CC(=O)Nc2cccc(C)c2)S(=O)(=O)c2cccc3nonc23)cc1 | -8.4% | i | -0.82
CC(C)C(=O)c1cn(CC(=O)NCc2ccc3c(c2)OCO3)c2ccccc12 | 0.7% | i | .
CCC(C)(C(=O)NC1CCCC1)N(C(=O)c1cnccn1)c1ccccc1 (stereo unspecified) | 3.4% | i | -0.65
CN(C)CCNC(=O)Cn1nc(C(F)F)cc1C1CC1 | 9.0% | i | 0.09
O=C(Nc1nnc(CC(=O)N2CCOCC2)s1)c1cccs1 | 1.8% | i | -0.37
CCOc1ccccc1N(CC(=O)NC(C)(C)C)C(=O)Cn1nnc(-c2ccc(C)o2)n1 | -2.8% | i | -1.6
O=C(CCn1c(=S)[nH]c2cc3c(cc2c1=O)OCO3)NCCN1CCCC1 | -0.2% | i | -0.24
O=C(N/N=C/C1CCCCC1)c1ccccn1 | -0.8% | i | .
COc1ccc(CNc2nc(-c3cccnc3)nn2C(=O)c2ccco2)cc1 | 2.0% | i | -0.18
CC(=O)N1CCCc2cc(S(=O)(=O)NCc3ccc(C)cc3)ccc21 | -1.5% | i | 0.71
COC(=O)c1ccccc1NC(=O)CSc1nnc(C(CO)NC(=O)c2ccccc2)n1C (stereo unspecified) | 0.4% | i | -1.3

A portion from further up:
SMILES | Hsc70 | MT1-MMP promoter | WNV NS2B-NS3 inh
CCOc1cc(-n2ncc(C#N)c2N)nc(SC)n1 | -5.6% | i | .
CCC(c1nnnn1CCc1ccccc1)N(Cc1ccco1)Cc1cc2cccc(C)c2[nH]c1=O (stereo unspecified) | -7.2% | i | -0.12
C=CCOc1cccc(C2/C(=C(\O)c3ccc(F)cc3)C(=O)C(=O)N2CCN(C)C)c1 (stereo unspecified) | -2.3% | i | -0.07
Cc1ccc(CNc2ncc(-c3ccc4c(c3)OCO4)n2C)cc1 | -2.0% | i | 2.2
COc1cccc(-c2cc(C(=O)Nc3ccccc3SC)no2)c1 | 4.6% | i | -0.73
CCOc1ccc(NC(=O)CN(C)CC(=O)Nc2ccccc2C#N)cc1OCC | 4.8% | i | -0.8
COc1ccc(CCNC(=O)C2CCN(S(=O)(=O)N3CC(C)CC(C)C3)CC2)cc1OC (stereo unspecified) | 6.0% | i | 0.49
O=[n+]1c2c(n([O-])c3cc(F)c(F)cc31)CCCC2 | 8.3% | i | -0.75
Cc1nc(-n2cc(F)c(=O)[nH]c2=O)c2nc(C)oc2n1 | -5.8% | i | -1.2
CC1(C)CC(=O)C(C=NC2CCCCC2)=C(O)C1 | -2.0% | i | -0.05
CCN(CC)c1nc2c(s1)C(=O)NCCC2 | 0.5% | i | .
Cc1ccc(/C=N/N2C(=S)SC(C)(C)C2N(O)C(=O)Nc2ccc([N+](=O)[O-])cc2)cc1 (stereo unspecified) | -1.3% | i | .
COC(=O)c1ccc(Cn2cnc3ccccc3c2=O)cc1 | 7.0% | i | -0.46
CC(Cc1ccc(O)c(O)c1)C(C)Cc1ccc(O)c(O)c1 (stereo unspecified) | -1.9% | i | -0.8

The results go on:
SMILES | Hsc70 | MT1-MMP promoter | WNV NS2B-NS3 inh
Cn1c(=O)c2c(nc(NCc3cccnc3)n2Cc2ccc(Cl)cc2)n(C)c1=O | 0.8% | i | .
COCCCNC(=O)CCc1nc(-c2ccccc2Cl)no1 | 2.1% | i | -0.66
O=C(Nc1ccccc1)O/N=C/c1ccccc1Cl | -9.0% | i | .
CCOC(=O)c1c(NC(C)=O)sc2c1CCC(C=NCCCN(CC)CC)=C2Sc1ccccc1 | -8.2% | i | .
Cc1ccc(-c2cc(C)nc3ncnn23)cc1 | -4.3% | i | 0.05
c1ccc(-n2ncc3c(NCc4ccco4)ncnc32)cc1 | -46% | i | 1
CN(Cc1ccccc1)c1oc(-c2ccco2)nc1C#N | -7.2% | i | -1.7
CC1(C)N(O)CC(c2cccs2)=[N+]1[O-] | 1.4% | i | -0.45
O=C(O)c1ccc(-n2c(-c3cc(-c4ccco4)[nH]n3)n[nH]c2=S)cc1 | 7.4% | i | .
CC(C)c1ccccc1NC(=S)NN(Cc1ccccc1)c1ccccc1 | -1.4% | i | .
COc1ccccc1-n1c(C)nc(=O)c(-c2ccccc2)c1C | 5.4% | i | 0.22
C/C=C/Cn1c(SCCCc2ccccc2)nc2c1c(=O)[nH]c(=O)n2C | 1.6% | i | -0.02
COc1ccccc1N1CCN(C(=O)C(C)N(c2ccc(C)cc2)S(C)(=O)=O)CC1 (stereo unspecified) | 2.6% | i | 0.41
Cc1nc2c(c(=O)n1CCC(C)C)c1nc3ccccc3nc1n2Cc1ccc2c(c1)OCO2 | -6.5% | i | -0.16
COc1ccc(C(=O)O)cc1NS(=O)(=O)c1cccc2nsnc12 | -3.6% | i | 0.48
Cc1nc2ccccc2c2oc(C(=O)N3CCc4ccccc43)cc12 | -1.0% | i | -0.18
COc1ccc(NC(=O)N2CCN(c3nc(-c4cccc(OC)c4)cs3)CC2)cc1 | -9.7% | i | -0.11
O=C1OC(c2ccccc2)/C(=C(/O)c2ccc(Cl)cc2)C1=O (stereo unspecified) | 5.1% | i | .
COc1ccc(Oc2nc(C)cc(C)c2C#N)cc1 | 0.8% | i | -0.07
Cc1oc(-c2ccc(Cl)cc2)nc1CS(=O)CC(=O)NCCN1CCCC1 (stereo unspecified) | 0.0% | i | -0.66
COc1ccc(C2=NO[C@@H]3C(=O)N(C4CCCCC4)C(=O)[C@H]23)cc1OC | 0.0% | i | 0.05
COc1cccc(-c2nc(Cc3ccc(OC)c(OC)c3)no2)c1 | 7.8% | i | 0.81
CC(CN1CCNCC1)(NS(=O)(=O)c1ccccc1)c1ccccc1 (stereo unspecified) | -2.4% | i | 1.4
Cc1ccc(/C=N/Nc2ncc(Cl)cc2Cl)s1 | 5.5% | i | .
CCC1(c2ccccc2)C(=O)NCNC1=O | 0.1% | i | -0.2
O=C(CNS(=O)(=O)c1ccc(C(=O)N2CCOCC2)cc1)N1CCOCC1 | -6.4% | i | -0.35
CC1CCN(C(=O)COC(=O)c2ccc(Br)o2)CC1 | -3.4% | i | .
COc1ccc(CC(=O)c2c(O)cc(O)cc2O)cc1OC | 4.6% | i | .
CC(C)Sc1nc(N2CCOCC2)c2c(c1C#N)CC(C)(C)N(C)C2 | 0.8% | i | .
